Rango-impB inh: qHTS Assay for Inhibitors of Rango (Ran-regulated importin-beta cargo) - Importin beta complex formation; AID 540263, 2011; Potency, µM (series often up to 92.2 µM), for the others: at the top dose inhibition of complex formation; actives 0.031% (n = 340,000); Importin subunit beta-1 (Homo sapiens), Q14974; Rango CFP/YFP FRET sensor + importin beta, 45 min; active = rising FRET ratio curve, often small or poorly fitted; inconclusive = mostly compound fluorescence or quenching in the first reads; inactive = flat curves in all reads;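 also: potency is read from the fitted curve at half-maximal effect; 0% = DMSO wells and 100% = buffer wells lacking importin beta; nearly all actives have a fitted effect of over 15% in size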
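FRET biosensor Rango (snurportin 1 IBB between N-terminal EYFP and C-terminal Cerulean), 50 nM in PBS/1 mM DTT/0.02% Tween-20/0.1% BSA, preincubated 5 min RT with compound; 0.125 microM importin beta added, 45 min RT, CFP/YFP FRET ratio read.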
miR-21 reporter: qHTS Assay for Modulators of miRNAs and/orActivators of miR-21. HeLa miR-21 FLuc reporter, luciferase, 48 h. 340,000 tested, under 10 active. AID 2288, 2010. Potency, µM (highest dose often 38.3 µM), for inactives: at the highest dose reporter change, positive = more light; active = well fitted rising curve with a large enough effect; inconclusive = small, poorly fitted or top-dose-only effect; inactive = no such curve, though single readings can be large or run the other way;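 also: % of control where 0% means no effect; miR-21 action dims this reporter so a rising signal means less miR-21 action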
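Compounds were titrated across several concentrations (up to approximately 40 uM) and incubated 48 hours with HeLa miR-21-FLuc reporter cells (miR-21 target sequence downstream of FLuc, endogenous miR-21). Readout was firefly luciferase luminescence after lytic detection reagent.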
Rango release inh: qHTS Assay for Inhibitors of RanGTP induced Rango (Ran-regulated importin-beta cargo) - Importin beta complex dissociation; actives 0.071% (n = 340,000); Potency, µM (titrated, usually from 46.1 µM), without a hit: at the top dose activity change, negative = inhibition; Biochemical FRET Rango-importin beta, RanGTP-induced dissociation; active means falling FRET ratio curve, often poorly fitted, with flat reads before Ran was added; inconclusive means other falling curves, or compound fluorescence or quenching; inactive means flat or rising ratio curve;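 also: potency is read from the fitted curve at half-maximal effect; % of control where 0% means no effect; nearly all actives have a fitted effect of over 45% in size; -100% = wells without RanGTP and RCC1; the record marks most hits as doubtful in a second field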
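Two FRET readings bracket the reaction: one 5 min after compound meets Rango–importin beta, another 45 min after RanGTP-RCC1 (0.6 uM Ran, 0.2 uM RCC1, 2 mM GTP) is added. Only the second defines inhibition.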
GLA inh pH 4.5: qHTS Assay for Inhibitors of Human alpha-Galactosidase at pH 4.5. Alpha-galactosidase A (Homo sapiens), P06280. purified enzyme, 4-MU-alpha-Gal fluorescence, pH 4.5. activity change, negative = inhibition, % at 105 µM. 230,000 tested, under 10 active. AID 1467, 2008; inconclusive = small, poorly fitted or top-dose-only inhibition, or a rising curve; inactive = flat fitted curve, though single readings scatter; no compound was filed as active;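 also: 0% = full activity with enzyme and -100% = basal without enzyme; dose as in the result columns while the protocol names 77 µM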
Target sequence (P06280 whole entry, looked up): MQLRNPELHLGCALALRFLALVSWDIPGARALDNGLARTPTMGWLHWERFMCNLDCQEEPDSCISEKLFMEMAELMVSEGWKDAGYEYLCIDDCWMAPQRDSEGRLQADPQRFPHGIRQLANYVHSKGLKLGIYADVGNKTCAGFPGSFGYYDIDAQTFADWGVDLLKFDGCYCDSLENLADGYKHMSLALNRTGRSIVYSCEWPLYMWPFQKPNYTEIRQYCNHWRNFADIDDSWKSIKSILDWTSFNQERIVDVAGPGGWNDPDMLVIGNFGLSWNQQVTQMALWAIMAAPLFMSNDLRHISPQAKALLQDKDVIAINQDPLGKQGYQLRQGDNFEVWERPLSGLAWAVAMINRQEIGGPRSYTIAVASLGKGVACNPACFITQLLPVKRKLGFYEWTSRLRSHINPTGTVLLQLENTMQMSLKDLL
Starred values were filed as active, the others as inactive; u = inconclusive; x = not tested or not shown; & = joins results of further samples. Only part of the results is shown (hit frequency here may not be typical).

SMILES	Rango-impB inh	miR-21 reporter	Rango release inh	GLA inh pH 4.5
CCc1nc2ccccc2c(=O)n1-c1ccccc1[N+](=O)[O-]	-1.4%	-10%	-16%	1
CCC12CN3CCN(CC(C3)/C1=N/NC(=O)c1ccncc1)C2	-0.6%	3%	11%	-4
CN1C(=O)N(C)C(=O)C2(Cc3ccccc3N3CCOCC32)C1=O (configuration not stated)	4.5%	-1%	5%	2
C[N+]1(C)C2CC[C@H]1CC(OC(=O)C(CO)c1ccccc1)C2 (some centres not stated)	-1.4%	x	-9%	x
O=C1c2cccc3cccc(c23)C(=O)N1/N=C/c1c(O)n(-c2ccccc2)c(=O)[nH]c1=O	-4.0%	1%	-20%	-19
O=c1[nH]c(=O)n(C2CCCCC2)c(O)c1/C=N/N1CCCCC1c1cccnc1 (configuration not stated)	2.2%	0%	20%	6
NN=C(N)N	-1.1%	x	-18%	-7&-14&-2&2
C[C@]12CCC(=O)C=C1CC[C@@H]1C2CC[C@]2(C)C(=O)CCC12 (some centres not stated)	-3.1%	-9%	-4%	x
CCOC(=O)C(O)(c1ccc(NC(=O)c2ccc(Cl)c(Cl)c2)cc1)C(F)(F)F (configuration not stated)	-2.7%	7%	-13%	5
CCOC(=O)C1(CCc2ccccc2)CCN(CC(O)CO)CC1 (configuration not stated)	-1.1%	-3%	1%	x
CC(O)C1C=CC=CC(=O)OC2CC3OC4C5OC5(C)C(O)CC4(COC(=O)C(O)C(C)CCO1)C2(C)C31CO1 (configuration not stated)	0.9%	x	11%	x
c1cncc(C2Nc3cccc4cccc(c34)N2)c1	-1.7%	-3%&1%	15%	6
Cc1cccc(CN2CCCC(C(=O)c3ccc4c(c3)OCO4)C2)n1 (configuration not stated)	1.9%	-1%	9%	-8
CCC1(CC(C)C)C(=O)NC(=S)NC1=O	1.2%	x	-12%	x
COC(=O)C1=C(c2ccc(-c3ccccc3)c(F)c2)C[C@@H]2CC[C@H]1N2C(=O)N1CCc2cc(OC)c(OC)cc2C1	-0.4%	x	-8%	x
CCN(CC)S(=O)(=O)c1ccc(C)c(NCC(=O)Nc2ccc(C#N)c(Cl)c2)c1	-0.4%	u	10%	-14
O=C1NC(=O)N(Cc2ccco2)C(=O)/C1=C\c1cccn1CCOc1ccccc1	-3.1%	-8%	-1%	-7
CC(=O)N1Cc2cnnn2-c2ccccc2C1(C#N)Cc1ccccc1 (configuration not stated)	-0.6%	x	-13%	x
O=[N+]([O-])[N-][n+]1cnn(Cc2ccc(Cl)cc2)c1	1.2%	-2%	-2%	-2
Cn1c(=O)cc(OCC(=O)N2CCN(Cc3ccc4c(c3)OCO4)CC2)c2ccccc21	-4.9%	-11%	0%	-4
C(#CCN1CCOCC1)COC/C=C/c1ccccc1	-2.5%	-21%	-5%	1
CC1(C)CC(n2[nH]c(=O)c3c2NC(=O)CSC3c2ccc(F)cc2)CCO1 (configuration not stated)	-0.8%	-3%	2%	6
COc1cc(CN2CCCC(C(=O)c3sccc3C)C2)cc(OC)c1O (configuration not stated)	0.1%	1%	u	5
CCOP(=O)(OCC)C(NC(C)=O)C(Cl)(Cl)Cl (configuration not stated)	-1.0%	4%	8%	7
CC(=O)OC1CC(OC2C(O)CC(OC3C(O)CC(OC4CCC5(C)C(CCC6C5CCC5(C)C(C7=CC(=O)OC7)C(O)CC65O)C4)OC3C)OC2C)OC(C)C1OC1OC(CO)C(O)C(O)C1O (configuration not stated)	-0.6%	x	-2%	x
COC(=O)C1=C(C(=O)OC)C2c3ccccc3C1c1ccccc12	-0.2%	x	2%	x
COC(=O)C1=C(c2cccc(C#N)c2)C[C@@H]2CC[C@H]1N2C(=O)NCc1ccco1	1.8%	x	0%	x
O=C1NC(=O)N(CCc2ccc(F)cc2)C(=O)/C1=C/c1cccs1	-5.0%	-1%	1%	-1
CC(=O)N1CN2CN(C(C)=O)CC(C(=O)c3ccccc3)(C2)C1	-0.1%	-3%	-7%	-21
Cc1ccc2c(c1)CC1(CN2C)C(=O)NC(=O)N(CCc2ccccc2)C1=O (configuration not stated)	-0.7%	-5%	-4%	7
COCCOC(=O)c1c(C)oc2ccc(OC(=O)N(C)C)cc12	4.6%	-1%	2%	-10
CNC(=O)O/N=C(\C)Cc1nnn(-c2cc(C)on2)n1	5.1%	-1%	2%	-7
COc1cccc(CN2CC=C(c3ccc(F)cc3)CC2)c1	0.2%	-2%	-7%	x
C1=CC(Cc2cncs2)c2ccccc21 (configuration not stated)	1.7%	x	10%	x
CC1=CC2OC3CC4OC(=O)C=CC=CC(=O)OCCC(C)C(O)C(=O)OCC2(CC1O)C4(C)C31CO1 (configuration not stated)	-0.8%	x	-1%	x
O=C(c1cc2cc3ccc(Cl)cc3nc2o1)N1CCC2(CC1)OCCO2	-0.3%	-15%	0%	1
FC(F)(F)c1ccccc1CNCCc1c[nH]c2ccccc12	1.8%	0%	5%	x
Cc1ccsc1C(=O)C1CCCN(Cc2cnc(N3CCCC3)s2)C1 (configuration not stated)	0.1%	0%	-20%	1
CC(C)C[C@H]1C(=O)N2CCC[C@H]2[C@]2(O)O[C@](NC(=O)[C@@H]3C=C4c5cccc6[nH]c(Br)c(c56)CC4N(C)C3)(C(C)C)C(=O)N12 (some centres not stated)	7.6%	u	-9%	x
Cc1sc2c(c1C)C(c1cccs1)=NCC(=O)N2CC(=O)NCc1cccs1	-4.6%	2%	4%	-3
O=P(NCc1ccccc1)(Oc1ccccc1)Oc1ccccc1	0.0%	15%	8%	-13
O=c1[nH]c(=O)n(-c2ccccc2Cl)c(O)c1C=NCCN1CCCCC1	-2.0%	0%	13%	3
O=C(Oc1ccc([N+](=O)[O-])cc1)N1CCC(N2CCCCC2)CC1	-4.6%	2%	-8%	5&3
CO[C@H]1[C@@H](OC)CC(OC2OC(CO)C(O)C(O)C2O)/C(=C\C#N)[C@@H]1O (some centres not stated)	u	1%	0%	-2
O=[N+]([O-])c1cnc[nH]1	5.9%	x	4%	x
CN1OC[C@@H]2CN[C@H](c3ccccc3Br)C[C@@H]21	-2.4%	x	8%	x
CC(Cc1ccsc1)NCc1cn[nH]c1-c1ccc(F)cc1F (configuration not stated)	-0.7%	4%	0%	-8
COc1cc(OC)c(OC)cc1/C=C1/C(=O)NC(=O)N(Cc2ccccc2)C1=O	u	11%	6%	-2
CN(C)C(=O)Oc1ccc2c(c1)O/C(=C\c1ccccc1)C2=O	4.8%	-75%	-7%	x
N#CC1(c2ccccc2)CCN(C2CC(=O)N(c3ccc(F)cc3)C2=O)CC1 (configuration not stated)	-3.2%	1%	-10%	4
N#Cc1cn(Cc2ccccc2)c(=O)[nH]c1=O	-3.6%	-8%	u	5
CCCCCCC(=O)c1c(O)n(-c2ccccc2OC)c(=O)[nH]c1=O	1.0%	-4%	6%	-14
COc1ccc2c(c1)C13CCN(C)C(C2)C1CCC1(C3)OCCO1 (configuration not stated)	-0.9%	x	1%	x
CCCCC1(CCO)C(=O)NC(=S)NC1=O	-2.1%	x	19%	x
N#CC1c2ccccc2-n2nncc2CN1S(=O)(=O)c1cc(Cl)cc(Cl)c1 (configuration not stated)	-1.6%	x	-21%	x
CC1CCCCC1NC1CCN(C)CC1 (configuration not stated)	-0.5%	-1%	4%	x
CCCCCCC(=O)c1c(O)n(-c2ccccc2OC)c(=O)[nH]c1=O (tested in a mixture with another compound)	-4.9%	1%	-7%	-5
CC(=O)c1ccc(OC(NC(=O)Cc2ccccc2)C(Cl)(Cl)Cl)cc1 (configuration not stated)	-2.1%	1%	8%	4
CN1CCN(C(=O)COc2ccc(S(=O)(=O)N(C)Cc3ccccc3)cc2)CC1	0.9%	0%	0%	1
CCOC(=O)c1ccc(NC(=O)N2CC3CC(C2)c2cccc(=O)n2C3)cc1 (configuration not stated)	0.4%	-5%	-11%	x
The list continues.
SMILES	Rango-impB inh	miR-21 reporter	Rango release inh	GLA inh pH 4.5
COCCCn1c(N)c(C(=O)NCc2ccco2)c2nc3ccccc3nc21	u	23%	u	20
COC(=O)C1=C(c2ccc(F)cc2OCc2ccccc2)C[C@@H]2CC[C@H]1N2C(=O)NCc1ccccc1	4.6%	x	-4%	x
CCOC(=O)c1ccc(N=Cc2c(O)n(-c3ccccc3F)c(=S)[nH]c2=O)cc1	4.3%	-16%	0%	-2
COC(=O)C1=C(c2ccc(OCc3ccccc3)cc2)C[C@@H]2CC[C@H]1N2C(=O)NCCCc1ccccc1	-1.5%	x	-9%	x
CCCCn1c(O)c(C(CC)=Nc2ccc(C(=O)O)cc2)c(=O)[nH]c1=O	-0.1%	-14%	0%	5
CCNC(=S)NCCC1=c2ccccc2=N/C1=C\c1c(O)n(C)c(=O)n(C)c1=O	0.7%	2%	-8%	-7
COc1ccccc1NC(=O)c1cn(CCC#N)nc1-c1cccc(Cl)c1	3.0%	1%	13%	x
CC(Cc1cccs1)NCc1ccc(Cl)cc1 (configuration not stated)	-2.1%	-10%	-7%	u
C[N+]1(C)[C@@H]2CC[C@H]1CC(OC(=O)C(CO)c1ccccc1)C2 (some centres not stated)	-0.4%	-3%&-1%	0%	2&6
CC1CC(OP(O)(=S)c2ccc(N(C)C)cc2NC(=O)c2cccs2)CC(C)(C)C1 (configuration not stated)	0.2%	25%	-4%	10
CCN(CC)C(=O)c1ccc(NC(=O)Cn2nc(C)c3ccccc3c2=O)cc1	-2.2%	-4%	7%	-7
CNC(=S)N1CCn2cccc2C1c1cccnc1 (configuration not stated)	-1.2%	-1%	-4%	-8

Arranged by heavy-atom count (rising): three of the compounds above
SMILES	Rango-impB inh	miR-21 reporter	Rango release inh	GLA inh pH 4.5
CC(Cc1cccs1)NCc1ccc(Cl)cc1 (configuration not stated)	-2.1%	-10%	-7%	u
CCCCn1c(O)c(C(CC)=Nc2ccc(C(=O)O)cc2)c(=O)[nH]c1=O	-0.1%	-14%	0%	5
CC1CC(OP(O)(=S)c2ccc(N(C)C)cc2NC(=O)c2cccs2)CC(C)(C)C1 (configuration not stated)	0.2%	25%	-4%	10

Continued:
SMILES	Rango-impB inh	miR-21 reporter	Rango release inh	GLA inh pH 4.5
COc1ccc(CNCCc2ccc(Cl)cc2)c(OC)c1OC	4.7%	0%	9%	x
C#CC1(O)C=CC2C3CCC4=CC(=O)CCC4C3CCC21CC (configuration not stated)	-1.5%	-22%	-11%	x
O=C(NC1CONC1=O)OCC(Cl)(Cl)Cl (configuration not stated)	1.8%	-3%	8%	-5
COC(=O)C1=C(c2ccc(F)cc2OCc2ccccc2)C[C@@H]2CC[C@H]1N2C(=O)NCc1ccc(OC)cc1	-0.9%	x	-11%	x
CC(=NCCc1c[nH]c2ccccc12)c1c(O)n(Cc2ccccc2)c(=O)[nH]c1=O	5.9%	25%	-5%	-12
COc1ccc(N2C(=O)/C(=C/c3cccs3)C(=O)NC2=S)cc1	u	-3%	-28%	1
c1ccc(-c2[nH]c(-c3ccccc3)[n+](CC3CO3)c2-c2ccccc2)cc1 (configuration not stated)	3.0%	2%	18%	3
CCCCCCOc1ccc(CN2CCN(CCO)CC2)cc1	-0.2%	-26%	1%	-6
COc1ccc(C2N(c3cc(C)on3)C(=O)C3CCCN32)cc1 (configuration not stated)	-1.6%	-4%	1%	-2
N#CC(C#N)=Cc1cccnc1	u	0%	-4%	7
C=CCn1c(O)c(C(CC)=Nc2ccc3c(c2)CCC3)c(=O)[nH]c1=O	2.4%	-6%	5%	-3
CCC(C)OC(=O)c1c(N)n(Cc2cccs2)c2nc3ccccc3nc12 (configuration not stated)	u	1%	-18%	u
CCN(CC)c1ccc(/C=C2\C(=O)NC(=O)N(Cc3ccco3)C2=O)cc1	u	-2%	-21%	2
Cc1ccccc1N	-1.4%	x	-2%	x
O=C(CCC(=O)N1CCOc2ccc(Cl)cc21)N1CCC2(CC1)OCCO2	-1.7%	0%	3%	x

Random excerpt: two entries already listed
SMILES	Rango-impB inh	miR-21 reporter	Rango release inh	GLA inh pH 4.5
CC(=NCCc1c[nH]c2ccccc12)c1c(O)n(Cc2ccccc2)c(=O)[nH]c1=O	5.9%	25%	-5%	-12
N#CC(C#N)=Cc1cccnc1	u	0%	-4%	7

Screens (PubChem)
